Compound activity deposited in PubChem by National Center for Advancing Translational Sciences (NCATS).
Rango complex inh = Rango-importin beta binding inhibition. Q14974. Rango CFP/YFP FRET sensor + importin beta, 45 min. Potency, µM (series often up to 92.2 µM), for inactives: top-dose inhibition of complex formation. 0.031% of 340,000 active. AID 540263; active = rising FRET ratio curve, often small or poorly fitted; inconclusive = mostly compound fluorescence or quenching in the first reads; inactive = flat curves in all reads;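 note: potency is the fitted concentration of half-maximal effect; 0% = DMSO wells and 100% = buffer wells lacking importin beta; nearly all actives have a fitted effect of over 15% in size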
Target sequence (Q14974 whole entry, looked up): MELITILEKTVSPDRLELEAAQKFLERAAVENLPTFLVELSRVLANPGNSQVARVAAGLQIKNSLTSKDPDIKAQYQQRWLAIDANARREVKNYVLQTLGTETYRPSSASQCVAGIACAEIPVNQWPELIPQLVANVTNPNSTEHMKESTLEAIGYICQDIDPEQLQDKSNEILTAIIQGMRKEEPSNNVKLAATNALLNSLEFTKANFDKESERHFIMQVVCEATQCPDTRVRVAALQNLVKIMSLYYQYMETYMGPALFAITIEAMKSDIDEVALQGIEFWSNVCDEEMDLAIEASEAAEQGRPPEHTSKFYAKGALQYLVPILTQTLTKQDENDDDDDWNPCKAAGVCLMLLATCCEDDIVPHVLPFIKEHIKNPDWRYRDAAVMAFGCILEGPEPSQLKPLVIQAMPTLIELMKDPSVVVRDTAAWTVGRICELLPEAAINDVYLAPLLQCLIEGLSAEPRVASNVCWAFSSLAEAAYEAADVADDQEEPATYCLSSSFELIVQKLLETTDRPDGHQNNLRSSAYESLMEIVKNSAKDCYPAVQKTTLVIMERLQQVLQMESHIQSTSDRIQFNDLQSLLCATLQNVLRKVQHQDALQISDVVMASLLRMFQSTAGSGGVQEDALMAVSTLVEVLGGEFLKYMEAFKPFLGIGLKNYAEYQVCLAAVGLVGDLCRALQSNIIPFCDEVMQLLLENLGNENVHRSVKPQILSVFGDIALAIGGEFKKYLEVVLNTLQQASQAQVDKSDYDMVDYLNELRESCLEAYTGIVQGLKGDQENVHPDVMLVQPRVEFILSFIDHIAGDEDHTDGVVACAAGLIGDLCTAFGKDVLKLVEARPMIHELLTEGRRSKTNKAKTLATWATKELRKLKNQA
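FRET biosensor (snurportin 1 IBB flanked by EYFP and cerulean), 50 nM, with compound 5 min, then 0.125 microM importin beta in PBS, 1 mM DTT, 0.02% Tween-20, 0.1% BSA. CFP/YFP ratio read after 45 min at room temperature; pre-read flags interference.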
miR-21 FLuc = raises the signal of a miR-21 reporter; Potency, µM (top dose mostly 38.3 µM), for inactives: at the highest dose reporter change, positive = more light; 340,000 tested, under 10 active; HeLa miR-21 FLuc reporter, luciferase, 48 h; AID 2288; active = well fitted rising curve with a large enough effect; inconclusive = small, poorly fitted or top-dose-only effect; inactive = no such curve, though single readings can be large or run the other way;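 note: % of control where 0% means no effect; miR-21 action dims this reporter so a rising signal means less miR-21 action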
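HeLa cells endogenously expressing miR-21, stably carrying CMV-driven firefly luciferase with a downstream miR-21 binding site, 2000 cells/well. Titrations up to approximately 40 uM, 48 hours; luciferase luminescence read.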
Rango release inh = inhibition of RanGTP-driven Rango-importin beta dissociation; Biochemical FRET Rango-importin beta, RanGTP-induced dissociation; Potency, µM (titrated, usually from 46.1 µM), for inactives: top-dose activity change, negative = inhibition; 0.071% of 340,000 active; AID 540253; active means falling FRET ratio curve, often poorly fitted, with flat reads before Ran was added; inconclusive means other falling curves, or compound fluorescence or quenching; inactive means flat or rising ratio curve;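 note: potency is the fitted concentration of half-maximal effect; % of control where 0% means no effect; nearly all actives have a fitted effect of over 45% in size; -100% = wells without RanGTP and RCC1; the record marks most hits as doubtful in a second field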
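Compounds preincubate 5 min with complex of recombinant Rango and importin beta in PBS with 1 mM DTT. Ran (0.6 uM) loaded with 2 mM GTP plus 0.2 uM RCC1 starts dissociation; FRET is recorded 45 min later.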
GLA inh pH 4.5 = inhibitors of human alpha-galactosidase A at pH 4.5 | purified enzyme, 4-MU-alpha-Gal fluorescence, pH 4.5 | activity change, negative = inhibition, % at 105 µM | 230,000 tested, under 10 active | AID 1467; inconclusive = small, poorly fitted or top-dose-only inhibition, or a rising curve; inactive = flat fitted curve, though single readings scatter; no compound was filed as active;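 note: 0% = full activity with enzyme and -100% = basal without enzyme; dose as in the result columns while the protocol names 77 µM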
An asterisk follows results filed as active; ? = inconclusive; . = no result given; & = joins results of further samples. These rows are one share of the data, so the mix of outcomes need not match the whole.

SMILES | Rango complex inh | miR-21 FLuc | Rango release inh | GLA inh pH 4.5
Cc1[nH]c(=O)c(S(=O)(=O)c2ccccc2)c(C)c1Cl | -1.1% | -3% | 11% | .
Cc1nnc(NN)n(N)c1=O | 0.9% | 0% | 1% | -9
O=C(CCC(=O)Nc1ccccc1)N/N=C/c1cccnc1 | -4.1% | -2% | -1% | .
CC(C)c1ccc(-c2csc3ncnc(N4CCN(C)CC4)c23)cc1 | -2.4% | ? | -3% | .
Cc1cc(Cl)ccc1NC(=O)CN1C(=O)NC2(CCCc3ccccc32)C1=O (stereo not given) | -2.8% | . | -7% | .
CC(=O)NCC(=O)NNC1CC(=O)N(c2cccc(Cl)c2)C1=O (stereo not given) | -0.8% | 2% | -8% | -1
Cn1c(SCC(=O)Nc2ccccc2)nnc1C(F)(F)F | 4.3% | -10% | 8% | 1
CCOc1ccc2c(c1)sc(N)[n+]2Cc1cc(C)cc2cccnc12 | ? | ? | -10% | -4
COc1ccc(Cl)cc1NC(=O)N1CCN(c2ccccc2OC)CC1 | -2.6% | -2% | -5% | -5
O=C(NCC1CCCO1)c1ccccc1OCc1ccc(Cl)cc1 (stereo not given) | -1.7% | . | 9% | .
CCOc1ccc2[nH]cc(C(=O)NCCc3ccccc3)c(=O)c2c1 | 3.8% | 9% | 7% | .
COc1cc(/C=N/n2nnnc2Nc2ccccc2)cc(OC)c1OC | -0.1% | 4% | 10% | -20
COc1ccc(/C=C2\SC(=S)N(CC(=O)OCC(=O)Nc3ccc([N+](=O)[O-])cc3OC)C2=O)cc1 | -1.1% | 2% | 2% | 1
Cc1ccc(S(=O)(=O)N2CCN(C(=O)COC(=O)c3nc(Cl)ccc3Cl)CC2)c(C)c1 | 6.4% | . | -6% | .
NNC(=S)Nc1c(Br)cc(F)cc1Br | -0.4% | -2% | 7% | -9
COc1ccc2[nH]cc(CCNC(C)=O)c2c1 | 1.1% | . | -9% | 0&0&2&1
N#C/C(=C\N1CCCCC1)S(=O)(=O)c1ccc(Cl)cc1 | -1.3% | -6% | 5% | -7
CC(C)N(C(=O)c1ccc(C(=O)Nc2ccc([N+](=O)[O-])cc2)cc1)C(C)C | 6.2% | 0% | 10% | 4
COc1ccccc1CCC(=O)NNC(=O)c1cccs1 | -2.6% | . | 3% | .
COc1ccc(Nc2nnc(SCC3CCCCO3)s2)cc1 (stereo not given) | 1.4% | -22% | 6% | 8
O=S(=O)(NCCN1CCOCC1)c1cc(Cl)ccc1Cl | -1.3% | -1% | -19% | .
Cc1n[nH]c(C)c1S(=O)(=O)N1CCN(c2ccccn2)CC1 | 3.3% | -3% | ? | 12
COc1ccc(CC(=O)NCC2(c3ccc(OC)c(OC)c3)CCOCC2)cc1 | 2.8% | -6% | -2% | .
O=C(O)/C=C/C(=O)Nc1ccccc1-c1ccccc1NC(=O)/C=C/C(=O)O | 0.1% | -1% | 2% | -1
O=C(N/N=C/c1ccc(OCC(=O)N2CCCCC2)cc1)c1ccccc1 | 0.3% | -12% | 3% | 1
SMILES | Rango complex inh | miR-21 FLuc | Rango release inh | GLA inh pH 4.5
O=C(Cc1ccccc1)Nc1ccc(C(=O)NCC2COc3ccccc3O2)cc1 (stereo not given) | 1.0% | -6% | 0% | -6
CC(=NNC(=O)c1ccc2nc[nH]c2c1)c1ccc(Br)cc1 | 52µM* | . | -15% | .
CCc1ccccc1NC(=O)C(Cc1ccccc1)c1nn[nH]n1 (stereo not given) | 7.4% | -4% | 13% | .
O=C(NC1CCCCC1)C(c1ccco1)N(C(=O)c1csnn1)c1cccc(Cl)c1 (stereo not given) | -0.3% | 1% | 2% | .
CCN(CC)S(=O)(=O)c1ccc(N2CCCC2)c(NS(=O)(=O)c2ccc(F)cc2)c1 | 0.3% | -7% | 8% | 5
CN(C)S(=O)(=O)c1ccc(Cl)c(NC(=O)COc2ccccc2[N+](=O)[O-])c1 | 0.5% | -1% | 3% | 10
CC(=O)n1cc([C@H]2C=C(C(=O)N3CCN(Cc4ccccc4)CC3)O[C@@H](OCc3ccc(CO)cc3)C2)c2ccccc21 | ? | 15% | -15% | -16
CC1(C)O[C@@H]2[C@H](O1)[C@@H](COS(=O)(=O)O)O[C@H]2n1cc(Br)c(=O)[nH]c1=O | 4.5% | . | 15% | .
Cc1ccc(-n2c(SCC(=O)Nc3cccc(S(=O)(=O)NC4=NCCCCC4)c3)nc3ccccc3c2=O)cc1C | 0.1% | -5% | 13% | -1
CC(C)[C@H](NC(=O)c1ccccc1Cl)C(=O)OCC(=O)Nc1ccc(S(=O)(=O)N2CCOCC2)cc1 | -0.1% | . | -14% | .
COc1cccc(CNC(=O)CCCSc2ccccc2)c1 | -0.5% | 0% | -22% | .
CSc1ccc(CN(C)C(=O)c2cc(S(=O)(=O)NCc3ccccc3)ccc2C)cc1 | 1.8% | . | -13% | .
Cc1nn(Cc2c(F)c(F)c(F)c(F)c2F)c(C)c1NC(=O)c1cccc(COc2ccccc2Cl)c1 | -2.8% | -49% | 4% | -7
O=C(Nc1ccc(N2CCOCC2)cc1)c1ccc(-c2ccccc2[N+](=O)[O-])o1 | -5.4% | -31% | -1% | .
Cc1ccc(C(=O)Nc2ncc(Cc3ccc(F)cc3)s2)o1 | -3.5% | -12% | 6% | -11
O=C(N1CCOCC1)N1CCC(c2nc(-c3ccc(S(=O)(=O)N4CCOCC4)cc3)no2)CC1 | -0.6% | -1% | -2% | 2
O=S(=O)(c1ccc(Cl)cc1)N1CCN(S(=O)(=O)N2CCCCCC2)CC1 | -2.1% | 0% | 1% | 1
CC(C)(CC(=O)O)CC(=O)N1CCN(c2nc3ccc(Cl)cc3s2)CC1 | 0.2% | -12% | 6% | .
COc1cccc(C(=O)/C=C/c2ccc(OCC#N)c(OC)c2)c1 | -1.6% | ? | -7% | 3
CC(C)(C)Nc1c(N)c(=O)oc2ccccc12 | -0.7% | -13% | 4% | 4
O=C(OC1CCOC1=O)c1cc(-c2ccccc2)nc2ccccc12 (stereo not given) | -3.4% | -2% | 1% | -1
Cc1ccc(C(=O)N2CCCC(Nc3ccc(C)c(C)c3)C2)c(=O)[nH]1 (stereo not given) | 1.4% | . | -13% | .
COc1ccc(OC)c(NC(=O)Cn2cc(C=O)c3ccccc32)c1 | -2.0% | -1% | 45% | 0
COc1cc2cc(C(c3nnnn3C(C)(C)C)N3CCc4ccccc4C3)c(=O)[nH]c2cc1OC (stereo not given) | ? | 2% | ? | 11
Cc1ccc(N2C(=O)C3C(C2=O)N2C(c4cccs4)C4C(=O)N(c5ccc(C)cc5)C(=O)C4N2C3c2cccs2)cc1 (stereo not given) | -1.9% | -6% | 3% | -3

Next part; it opens with the five that closed the last part.
SMILES | Rango complex inh | miR-21 FLuc | Rango release inh | GLA inh pH 4.5
O=C(OC1CCOC1=O)c1cc(-c2ccccc2)nc2ccccc12 (stereo not given) | -3.4% | -2% | 1% | -1
Cc1ccc(C(=O)N2CCCC(Nc3ccc(C)c(C)c3)C2)c(=O)[nH]1 (stereo not given) | 1.4% | . | -13% | .
COc1ccc(OC)c(NC(=O)Cn2cc(C=O)c3ccccc32)c1 | -2.0% | -1% | 45% | 0
COc1cc2cc(C(c3nnnn3C(C)(C)C)N3CCc4ccccc4C3)c(=O)[nH]c2cc1OC (stereo not given) | ? | 2% | ? | 11
Cc1ccc(N2C(=O)C3C(C2=O)N2C(c4cccs4)C4C(=O)N(c5ccc(C)cc5)C(=O)C4N2C3c2cccs2)cc1 (stereo not given) | -1.9% | -6% | 3% | -3
O=C(CSc1ccc2nnc(-c3ccccn3)n2n1)N1CCN(c2ccccc2)CC1 | -0.4% | 1% | 0% | 2
Cc1ccc(S(=O)(=O)Oc2ccc(/C=C(/NC(=O)c3ccccc3)C(=O)NCCCC(=O)O)cc2)cc1 | ? | 0% | 26% | 2
Cc1cc(-c2ccc(C)c(S(=O)(=O)N3CCN(c4ccccn4)CC3)c2)on1 | -0.8% | 9% | 33% | .
CCOc1ccc(N2Cc3ncccc3C2=O)cc1 | 4.2% | -37% | -7% | -2
Cc1ccc(/C(N)=N/OC(=O)C(C)c2ccc([N+](=O)[O-])cc2)cc1 (stereo not given) | 1.5% | -1% | -10% | .
COc1ccc(C(=O)N/N=C/c2cc(Br)ccc2O)cc1OC | ? | 27% | ? | -1
O=C(CCN1CCCCO1)N1CCCC(Nc2cccc(F)c2)C1 (stereo not given) | ? | -2% | 2% | .
Cn1cnc([N+](=O)[O-])c1Sc1ncn[nH]1 | 5.7% | -1% | 5% | -9
CN1C(=O)C2(c3ccccc31)c1c(oc3ccccc3c1=O)C(=O)N2CCO (stereo not given) | -7.4% | -1% | 0% | 3
Cn1cccc1C(=O)NC(=O)COC(=O)Cc1coc2ccc3ccccc3c12 | 7.7% | 3% | -4% | 1
CCOC(=O)NC(Cc1c[nH]c2ccccc12)C(=O)NCCc1ccc(S(N)(=O)=O)cc1 (stereo not given) | 2.1% | 3% | 4% | .
CCOc1cccc(N2C(=O)CC(NCc3ccc(S(N)(=O)=O)cc3)C2=O)c1 (stereo not given) | -4.8% | 3% | -8% | 4
CCOC(=O)c1cc(-c2ccccc2)sc1NC(=O)CC | -0.2% | -11% | -2% | -1
COC(=O)c1ccccc1C(=O)N1CCCC(C(=O)c2ccc(OC)c(OC)c2)C1 (stereo not given) | -0.1% | -1% | 15% | .
Cc1onc(C(=O)Nc2sc3c(c2C(N)=O)CCCC3)c1[N+](=O)[O-] | 1.7% | -29% | 36% | -5
C[C@@H]1CN([C@H](C)CO)C(=O)c2cc(NC(=O)Nc3ccc4c(c3)OCO4)ccc2O[C@H]1CN(C)Cc1ccncc1 | 1.8% | . | 3% | .
CSc1ccccc1OCc1cc(C(=O)N2CCc3c(Cl)cccc3C2)no1 | -0.1% | -4% | 1% | .
c1ccc(-c2noc(C34CC5CC(CC(C5)C3)C4)n2)cc1 | -0.2% | -14% | -1% | 2
CCOc1ccc(N(C)C(=O)CCc2nnc3ccc(N4CCCCC4)nn23)cc1 | -1.8% | -7% | 1% | .
O=C(Cc1ccccc1Cl)NNC(=O)Nc1ccccc1 | -2.7% | -4% | -9% | 0
CCCn1nc(NC(=O)COC)c2cc3cc(C)ccc3nc21 | 0.2% | -25% | ? | .
COc1ccc(NS(=O)(=O)c2cc(NC(=O)c3cccc(OCc4c(C)noc4C)c3)ccc2OC)cc1 | 1.9% | 0% | ? | -6
Cc1c(Cl)cccc1NC(=O)CCN1CCCC(C)C1 (stereo not given) | -0.3% | -6% | -1% | 8
COc1ccc(NC(=O)c2ccc(NC(=O)COC(=O)CC(NC(=O)c3ccccc3Cl)c3ccccc3)cc2)cc1 (stereo not given) | 0.5% | -31% | 2% | -4
O=c1[nH]c2ccc(S(=O)(=O)N3CCN(c4ccccc4F)CC3)cc2s1 | -0.3% | 3% | 8% | -2
SMILES | Rango complex inh | miR-21 FLuc | Rango release inh | GLA inh pH 4.5
Cc1ccc(-n2nnnc2SCC(=O)Nc2sc(C)c(C)c2C#N)cc1C | -2.2% | -4% | 9% | -1
COc1ccc(NC(=O)CN2CCC(Cc3ccccc3)CC2)cc1S(=O)(=O)N1CCOCC1 | 1.6% | 5% | -5% | -7
CC1CC1C(=O)OCC(=O)Nc1ccc(N=Nc2ccccc2)cc1 (stereo not given) | 1.5% | -66% | 2% | -9
CC(=O)Nn1cnc2c(c1=O)C1(CCCCC1)Cc1ccccc1-2 | -3.7% | -3% | -5% | 2
COc1ccc([N+](=O)[O-])cc1NS(=O)(=O)c1ccc(C(=O)N2CCCC2)cc1 | 0.3% | . | -12% | .
COc1cc(C(C(=O)NC(C)(C)C)N(C(=O)CNC(=O)c2cccs2)c2ccccc2)cc(OC)c1OC (stereo not given) | 1.1% | -10% | 1% | 0
Cc1cc(=O)oc2c(C)c(OCC(=O)NCCCN3CCOCC3)ccc12 | 0.3% | 3% | 5% | .

One compound at a time, as listed above. Screens in order: Rango complex inh | miR-21 FLuc | Rango release inh | GLA inh pH 4.5
Cc1nnc(NN)n(N)c1=O across the screens: 0.9% | 0% | 1% | -9
CCOc1ccc2[nH]cc(C(=O)NCCc3ccccc3)c(=O)c2c1 across the screens: 3.8% | 9% | 7% | .
Cc1cc(-c2ccc(C)c(S(=O)(=O)N3CCN(c4ccccn4)CC3)c2)on1 across the screens: -0.8% | 9% | 33% | .
